TRPML1 ag: qHTS for Agonists of the Human Mucolipin Transient Receptor Potential 1 (TRPML1); activation, % (no concentration beside the values); Mucolipin-1 (Homo sapiens), Q9GZU1; AID 624414, 2012; actives 0.12% (n = 410,000); TRPML1-expressing cells, Ca2+ dye fluorescence, FDSS; host cell line not named in the record; reference of the full effect not given here; in the data active = activation above about 50%; inconclusive = about 30% to 50%; inactive = below about 30%; note: 0% is about no effect; the text of the record puts the active cut at 80%
Target sequence (Q9GZU1 whole entry, looked up): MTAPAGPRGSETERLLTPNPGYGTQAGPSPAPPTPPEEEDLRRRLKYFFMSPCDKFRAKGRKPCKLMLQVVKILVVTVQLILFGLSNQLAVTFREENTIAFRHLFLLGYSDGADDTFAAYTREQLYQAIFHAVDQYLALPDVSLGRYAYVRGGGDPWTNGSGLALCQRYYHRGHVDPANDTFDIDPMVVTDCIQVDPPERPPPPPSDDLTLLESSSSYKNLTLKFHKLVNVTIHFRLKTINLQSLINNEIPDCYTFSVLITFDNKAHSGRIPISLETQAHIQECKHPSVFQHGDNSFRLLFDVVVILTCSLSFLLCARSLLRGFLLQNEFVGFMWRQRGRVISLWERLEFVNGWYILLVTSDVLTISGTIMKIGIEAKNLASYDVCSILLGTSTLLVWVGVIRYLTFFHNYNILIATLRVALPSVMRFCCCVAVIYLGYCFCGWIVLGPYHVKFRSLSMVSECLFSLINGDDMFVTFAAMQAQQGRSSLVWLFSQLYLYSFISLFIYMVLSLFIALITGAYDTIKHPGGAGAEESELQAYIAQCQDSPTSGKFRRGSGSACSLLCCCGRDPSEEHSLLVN
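Agonist activity was taken from a 110 s kinetic Ca2+ dye read on the FDSS after pinning compounds onto TRPML1-DL cells. The cells were seeded at 1,500/well with Tet inducer, incubated about 16 h, then dye-loaded at room temperature.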
D2 ag: Beta-Arrestin HTS for Positive Allosteric Modulators of the Human D2 Dopamine Receptor: Agonists. actives 0.084% (n = 360,000). activation, % (test concentration not listed). DiscoveRx PathHunter D2 beta-arrestin, luminescence, 90 min; 100% = 57 uM dopamine signal. D(2) dopamine receptor (Homo sapiens), P14416; in the data active = activation above about 40%; inconclusive = about 15% to 40%; inactive = below about 15%; note: compound concentration not given in the record; the text of the record calls up to 30% inactive
Target sequence (P14416 whole entry, looked up): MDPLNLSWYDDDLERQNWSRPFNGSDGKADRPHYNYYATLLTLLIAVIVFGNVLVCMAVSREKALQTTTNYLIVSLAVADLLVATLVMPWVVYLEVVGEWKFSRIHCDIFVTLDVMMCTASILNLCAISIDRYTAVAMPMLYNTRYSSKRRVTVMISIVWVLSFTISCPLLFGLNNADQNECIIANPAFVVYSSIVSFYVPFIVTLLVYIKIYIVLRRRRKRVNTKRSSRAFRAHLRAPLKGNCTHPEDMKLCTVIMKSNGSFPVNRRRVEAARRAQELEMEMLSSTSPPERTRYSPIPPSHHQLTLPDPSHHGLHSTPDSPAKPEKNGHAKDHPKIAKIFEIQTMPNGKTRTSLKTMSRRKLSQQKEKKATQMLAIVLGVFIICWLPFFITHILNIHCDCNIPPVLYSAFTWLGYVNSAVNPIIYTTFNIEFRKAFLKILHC
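Agonist mode: compounds alone added to overnight-plated D2 PathHunter cells for 90 min at 37 C, with 57 uM final dopamine (EC100) defining full response. Beta-arrestin recruitment detected by chemiluminescent reagent, read after 1 h at ambient temperature.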
PINK1 modulator: A Quantitative High throughput Screen to Identify Chemical Modulators of PINK1 Expression | PINK1 immunofluorescence, high-content cytometry, 24 h | Potency, µM (titrated, usually from 76.6 µM), for the others: at the top dose activation (PINK1 increase), actives largely listed as activators | actives 0.2% (n = 410,000); active = well fitted activation curve with a large enough effect; inconclusive = small, poorly fitted or top-dose-only effect; inactive = flat fitted curve, though single readings scatter; cell line not stated here;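 note: potency is the fitted concentration of half-maximal effect; % of control where 0% means no effect; nearly all actives have a fitted effect of over 65% in size; a mitochondrial uncoupler was the plate control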
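PINK1 protein, normally rapidly degraded, was detected by immunofluorescence after 24 hour compound treatment of a stable cell line. Titration data (5 concentrations) came from laser-scanning cytometry, with CCCP-treated wells as controls.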
D2 PAM: Beta-Arrestin HTS for Positive Allosteric Modulators of the Human D2 Dopamine Receptor: Potentiators. D(2) dopamine receptor (Homo sapiens), P14416. DiscoveRx D2 beta-arrestin cells, luminescence, 90 min; 100% = 57 uM dopamine signal. potentiation, % (concentration not given with the values). actives 0.23% (n = 360,000). AID 624464, 2012; active = potentiation of 50% or more; inconclusive = 30% to 50%; inactive = 30% or less;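 note: compound concentration not given in the record; tested on top of an EC20 dose of dopamine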
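D2 cells co-treated with compound plus 50 nM dopamine (EC20) for 90 min at 37 deg C to detect potentiation. Beta-arrestin recruitment was read as enzyme-fragment luminescence after 1 h at ambient temperature. Full response was set by 57 uM dopamine.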
CtBP-E1A blk: qHTS Assay for Inhibitors of the CtBP/E1A Interaction | AlphaScreen GST-E1A/His-CtBP binding, 1536-well; stronger effect = lower value; control for the full effect not named in the record | activity change, % (concentration not given with the values) | actives 0.49% (n = 340,000) | AID 651724, 2012; in the data active means activity change below about -65%; inconclusive means about -30% to -65%; inactive means above about -30%; note: % is set by controls: 0 for no effect and ±100 for the full control effect
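Steps: dispense buffer (Tris pH 8.0, NaCl 300 mM, TCEP 1 mM, BSA, Tween 20); add 5X protein mix (GST-E1A, His-CtBP, 125 nM each); pin 23 nL compound; 2 h at 37 °C, dark; add 5X beads (50 ug/mL); 1 h; read.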
Six1-Eya2 inh: qHTS Assay for Inhibitors of the Six1/Eya2 Interaction; activity change, % (concentration not given with the values); Homeobox protein SIX1 (Homo sapiens) + Protein phosphatase EYA2 (Homo sapiens), …; actives 0.56% (n = 360,000); AID 651725, 2012; AlphaScreen GST-Six1/His-Eya2 binding, biochemical; stronger effect = lower value; control for the full effect not named in the record; in the data active = activity change below about -65%; inconclusive = about -30% to -65%; inactive = above about -30%; note: % is set by controls: 0 for no effect and ±100 for the full control effect
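AlphaScreen luminescence read after one hour at 37 °C in darkness. Pin-transferred compounds met GST-Six1 and His-Eya2 protein (5X stock 250 nM/500 nM) plus glutathione donor and Ni-chelate acceptor beads (5X, 50 ug/mL).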
An asterisk follows results filed as active; u = inconclusive; x = no result given; & = joins results of further samples; [ ] = another dose, or the depositor's remark.

SMILES	TRPML1 ag	D2 ag	PINK1 modulator	D2 PAM	CtBP-E1A blk	Six1-Eya2 inh
Cc1ccc2c(Cl)c(C(=O)NCc3cccnc3)sc2c1	-0.4	-2.5	26%[38.3 µM]	-1	-8	-9
O=C(N/N=C/c1c(F)c(F)c(F)c(F)c1F)c1ccc(Cn2cc(Br)cn2)o1	1.8	1.2	-6.6%	1	14	9
CS/C(=C\[N+](=O)[O-])Nc1ccc(C)cc1	0.3	-3.5	2.0%	-1	-2	6
O=C(Nc1nnc(SCC(=O)N2CCCCC2)s1)C1CCCCC1	0.7	-2.6	-0.8%	5	-13	3
O=C(C[C@@H]1C/C=C\CCC(=O)OC[C@@H]2CCCN2C1=O)N[C@H](CO)Cc1ccccc1	0.3	2.2	0.4%	-4	7	7
O=C(NC1=NCCS1)c1cccc2ccccc12	1.9	5.0	0.6%	3	-5	10
CCOC(=O)c1ccc(NC(=S)N2CCC(O)CC2)cc1	0.5	-3.8	-0.4%	-8	6	-5
C=CCNC(=S)NNC(=O)c1cc(O)ccc1O	0.5	4.4	-2.2%	12	-19	u
CC(C)=CC(O)C/C(C)=C/COc1ccc2ccc(=O)oc2c1 (configuration not stated)	0.2	-3.3	-1.0%	1	4	0
CCNC(=S)/N=C(/Nc1ccc(OC)cc1)Nc1nc(C)cc(C)n1	-0.6	-1.3	u	-11	8	3
COc1cc(OC)cc(C(=O)N2CCN(S(=O)(=O)c3ccc4c(c3)OCCO4)CC2)c1	-1.1	-1.2	-1.0%	-8	1	1
O=C(c1ccc(Cl)cc1)N1CCN=C1c1ccccc1	-0.1	-6.8	6.6%	-10	5	9
CCN(CC)CCn1c(-c2ccccc2)nc(=S)c2c1CC(C)(C)OC2	0.6	-1.1	-1.2%	-1	0	0
CCCNC(=O)c1ccc(SC)cc1OC	-0.1	-3.0	-2.9%	-10	1	5
S=c1[nH]nc(C2CC2)n1Cc1ccccc1	-0.4	3.0	4.1%	-10	-7	-8
COc1cccc(N=C(N)N)c1	0.7	-1.4	-0.4%	-3	3	9
COc1cc(OC)c(NC(=O)c2sc3ncn(CC(=O)N4CCOCC4)c(=O)c3c2C)cc1Cl	-0.1	-8.7	0.1%	-11	4	6
CNC(=S)N1CCC(c2nc3ccccc3s2)CC1	0.0	0.5	0.7%	-14	-12	4
COCCOC(=O)C1=C(N)OC2=C(C(=O)CCC2)C1c1cccnc1 (configuration not stated)	0.2	-0.7	0.2%	1	3	8
COc1ccc(N2CC(C(=O)Nc3nnc(SCC(=O)NCc4ccco4)s3)CC2=O)cc1 (configuration not stated)	-0.1	0.5	4.3%	-15	2	-6
O=C(O)CSc1cc(C(=O)c2ccccc2O)cn2c(=O)c3c4c(sc3nc12)CCCC4	0.7	-3.0	0.1%	-2	-3	-9
COc1cc(/C=C2\SC(=S)N(NS(=O)(=O)c3ccccc3)C2=O)cc(OC)c1OC	1.5	-5.1	0.1%	-4	-19	-22
CN1C(=O)c2ccc(C(=O)NCc3ccccc3)cc2C1=O	-0.6	2.1	5.0%[38.3 µM]	0	3	-2
Cc1ccccc1NC(=S)NCc1cccn1C	0.9	-0.5	1.8%	10	-4	-11
CCOC(=O)c1ccc(-n2c(C)nc3c(cnn3-c3ccc(Cl)cc3)c2=O)cc1	-0.2&-0.7	1.2	2.5%&11%	-4	11	9
CCOC(=O)[C@H]1[C@H]2COc3ccc(C)cc3[C@@H]2N2C(=O)CN(Cc3ccco3)C(=O)[C@@]12C	-0.6	0.6	-0.4%	-4	-5	-1
O=C(c1ccc(F)cc1)c1cn[nH]c1-c1ccccc1O	0.6	1.5	0.1%[38.3 µM]	4	6	4
COc1ccccc1CN(C)C(=O)CN1CCN(CC(=O)Nc2ccccc2Cl)CC1	1.3	-5.4	0.5%	-11	0	-5
Cc1cc(NC(=O)CSCC(=O)Nc2nc3ccccc3[nH]2)no1	-0.8	3.0	12%	29	-4	-6
Cn1cc(/C=C(\C#N)C(=O)Nc2ncc(Cc3ccc(Cl)cc3)s2)c2ccccc21	2.4	-1.5	3.7%	-11	28	30
COc1ccc(NC(=O)CN(C)C2CCCCC2)c([N+](=O)[O-])c1	0.2	-1.0	2.8%	-17	-6	2
Cc1ccc(S(=O)(=O)N2[C@@H](c3ccc(Cl)c(Cl)c3)C(C(=O)O)=C[C@H]2C(C)(C)C)cc1	-0.5	0.7	0.3%	x	-18	-18
O=S(=O)(c1ccccc1)N1CCC(O)(CN2CCN(c3ccccc3)CC2)CC1	-0.3	8.2	10.0%	-13	11	-3
CN(C)c1ccc(C=NNC(=O)c2cccnc2)cc1	0.2	-1.6	2.4%	-21	3	-9
Cc1ccc(-n2c(C)cc(C(=O)COC(=O)c3ccc[nH]c3=O)c2C)cc1	-0.3	-2.3	3.8%	-13	-1	-7
Cc1ccc(C2CC2C(=O)NNC(=S)Nc2cccc(Cl)c2)cc1 (configuration not stated)	2.2	-6.4	5.4%	-35	-4	-10
O=c1ccc(OCCOc2ccccc2)nn1-c1ccccc1	0.2	-1.7	1.9%	-18	17	2
Cc1cc(NC(=O)CSc2nnc3c(C)cc4c(C)ccc(C)c4n23)no1	1.4	-3.4	u	-3	0	4
OC(c1ccccc1)(c1ccc(F)cc1)C(c1ccccc1)N1CCOCC1 (configuration not stated)	6.3	-3.5	4.9%	-20	5	-4
CCN1C(=O)CC(C(=O)Nc2ccc(F)cc2)SC1=Nc1ccc2c(c1)OCO2 (configuration not stated)	-1.2	0.1	1.9%	-4	-2	-10

Compound profiles (already shown). Order of screens: TRPML1 ag | D2 ag | PINK1 modulator | D2 PAM | CtBP-E1A blk | Six1-Eya2 inh
`Cc1cc(NC(=O)CSc2nnc3c(C)cc4c(C)ccc(C)c4n23)no1` across the screens: 1.4 | -3.4 | u | -3 | 0 | 4
`Cc1ccc(-n2c(C)cc(C(=O)COC(=O)c3ccc[nH]c3=O)c2C)cc1` across the screens: -0.3 | -2.3 | 3.8% | -13 | -1 | -7

(next part)
SMILES	TRPML1 ag	D2 ag	PINK1 modulator	D2 PAM	CtBP-E1A blk	Six1-Eya2 inh
CCC(=O)Nc1cccc(C(=O)Nc2nccs2)c1	-1.2	-4.3	-0.1%	-11	5	2
O=C1c2ccsc2SCCN1Cc1c(F)cccc1Cl	1.8	-6.4	0.0%	-10	x	7
COCCn1nnnc1CN1CCC(NC(=O)c2ccc(Br)cc2)CC1	0.6	-0.9	-0.3%	-2	0	-2
Cc1ccc2[nH]c(C(=O)O)c(NC(=O)[C@@H]3C[C@@H]3c3ccccc3)c2c1	-0.4	-1.8	0.3%	-3	11	-1
CCN(CC)CCNC(=O)c1ccc(Cl)c(S(=O)(=O)N2CCCCCC2)c1	1.4	-1.5	0.1%	-34	5	3
CC(C)(C)n1nnc(CCc2nnn(C(C)(C)C)n2)n1	-0.5	-1.8	-0.9%	1	9	10
O=C(c1ccccc1OCc1ccc(Cl)cc1)N1CCN(c2ccccn2)CC1	3.3	-4.2	1.7%	-1	-11	-2
COc1ccc(NC(=O)CN(C)C(=O)c2cccc(S(=O)(=O)N3CCN(C)CC3)c2)cc1	-0.3	-2.5	2.4%	-8	2	0
O=C(NCc1ccccc1)C1=C[C@H](c2ccc(Br)cc2)C[C@H](OCCCCO)O1	-1.0	-1.5	0.8%	-12	-1	3
CC1CN(S(=O)(=O)c2cccc(C(=O)OCc3cc(=O)oc4cc(O)ccc34)c2)CC(C)O1 (configuration not stated)	2.0	-1.7	-0.2%	7	-2	-7
FC(F)(F)c1cc(CCN2C(=S)NC[C@@H]2CC2CCCCC2)cc(C(F)(F)F)c1	1.0	0.7	u	-16	2	-1
O=C(CCSc1ccc(Cl)cc1)NCc1ccncc1	-0.1	-0.8	0.4%	-10	7	6
COCCN(C(=O)CC1CCCC1)c1c(N)n(CC(C)C)c(=O)[nH]c1=O	4.7	-1.8	1.3%	-16	3	0
OCCC1CN(Cc2ccn[nH]2)CCN1Cc1ccc(F)c(F)c1 (configuration not stated)	-0.4	-3.4	-0.2%	-9	6	1
COc1ccc(OC)c(C2CC(=O)C(C)C(c3cc(OC)ccc3OC)N2)c1 (configuration not stated)	0.1	1.2	2.4%	16	5	6
C=CCn1c(-c2ccc(OC)c(OC)c2)n[nH]c1=S	-0.3	-0.9	-1.0%	-13	-2	2
CCOC1=C/C(=C/c2c(N)n3nc(S(=O)(=O)CC)sc3nc2=O)C=CC1=O	18	-5.8	-2.7%	-14	x	-5
NS(=O)(=O)c1cccc(NC(=O)COC(=O)CN2C(=O)c3ccccc3C2=O)c1	0.2	-3.8	0.6%	-3	30	0
CCC(=O)c1ccc(OCC(=O)OCC(=O)Nc2ccc3c(c2)OCCO3)cc1	1.3	1.1	0.9%	-1	7	-4
CCOC(=O)C(Oc1ccc2c(-c3ccccc3)cc(=O)oc2c1)c1ccccc1 (configuration not stated)	-0.6	2.0	1.6%	-5	18	1
COc1ccc(S(=O)(=O)N2CCN(C(=O)C3CCC3)CC2)cc1	0.1	-1.6	-2.8%	-17	3	-5
C[C@@H]1CCCCO[C@H](CN(C)C)[C@H](C)CN([C@@H](C)CO)C(=O)c2cc(NC(=O)Nc3ccc(C(F)(F)F)cc3)ccc2O1	0.2	-0.8	-1.3%	-3	-8	4
Cc1ccc(NC(=O)c2ccc(Cl)nc2)cc1S(=O)(=O)N1CCOCC1	-0.4	8.9	8.6%	-6	-12	u
Cc1csc2c(NCCCN3CCOCC3)ncnc12	1.0	-1.1	-1.4%	-6	0	7
CCCN=C1N(C)C[C@@H]2[C@@H]3C(=O)N(C)C(=O)[C@@H]3[C@](CC)(C(=O)OC)N12	1.0	-0.2	-0.8%	-1	2	6
Cc1ccc2cc(F)c(F)c(F)c2n1	-0.6	2.4	0.6%	-1	9	4
Cc1cc(C(=O)COC(=O)c2ccc(F)cc2F)c(C)n1C1CC1	0.3	-3.1	1.7%	1	7	3
COC(=O)C1CCN(C(=O)c2ccc3oc(Cc4ccc(Cl)cc4)nc3c2)CC1	1.1	-2.9	0.7%	-12	-16	-6
NCCc1c(C(=O)O)[nH]c2ccc([N+](=O)[O-])cc12	x	-1.0	0.9%	-10	7	3
O=C(Cc1ccc(Cl)cc1)Nc1ccc(N2CCN(C(=O)c3ccco3)CC2)cc1	-0.9	1.3	8.5%	-13	-10	-15
CCOc1ccccc1NC(=O)Nc1ccc(OC)nc1	0.0	-2.7	0.7%	-6	1	-19
C[N+](C)(CCOc1ccccc1)Cc1ccccc1	-1.1	6.3	0.8%	-5	2	-5
COc1ccccc1NC(=O)c1ccc2nsnc2c1	-0.3	-3.5	2.9%	3	-2	2
